# Compound activity (PubChem BioAssay)
# T cruzi repl: T. cruzi replication inhibition; inhibition, % (no concentration beside the values); 300,000 compounds, 1.4% hits; T. cruzi beta-gal in NIH3T3, luminescence, 90 h;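 active = mean inhibition across valid replicates above about 55%, limit read from the data; inconclusive = mean below that limit but half or more replicates reach it; inactive = mean below it, under half of replicates reach it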;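 also: signal also drops with host cell toxicity which is not excluded here; 0% = plate median of DMSO wells and 100% = zero luminescence signal; higher percent means less beta-gal luminescence so fewer parasites; stock transfer was 50 nL into about 50 µL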
# Beta apoptosis: blocks beta cell apoptosis; INS-1E cytokine-induced death, ATP luminescence, 48 h; percent of positive-control rescue, neutral wells zero; protection from apoptosis, % (concentration not given with the values); 300,000 compounds, 0.8% hits; AID 435005;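 active = all replicates at 75% or more, or half of them and the mean; inconclusive = half reach 75% but not the mean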;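 also: 0% = cytokine-treated negative control wells and 100% = positive control rescue; higher means more ATP so stronger rescue from cytokine killing; wells of about 40 µL received 100 nL stock; the first replicate is given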
# Calb FLC: affects C. albicans growth with fluconazole; C. albicans CaCi-2 (fluconazole-resistant clinical isolate) + fluconazole, Alamar Blue growth, 48 h; growth inhibition, % (concentration not given with the values); 300,000 compounds, 0.57% hits; AID 1979;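 active = most replicates above 75%; inconclusive = exactly half above 75%; inactive = most below 75%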;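 also: all wells also contain fluconazole at 8 µg/ml as a sub-toxic cotreatment; 0% = median of DMSO wells and 100% = median of geldanamycin control wells; wells of about 8 µL received 7.5 nL stock; the first replicate is given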
# UCH37 inh: human UCH37 deubiquitinating enzyme inhibition; 330,000 compounds, 0.33% hits; inhibition, % (no concentration beside the values); purified proteasome/UCH37, Ub-AMC cleavage fluorescence; Q9Y5K5;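 active = mean of two replicates above 20%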;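 also: 0% = compound-free wells with enzyme and 100% = wells lacking proteasome; stock transfer was 100 nL into about 20 µL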
# Target sequence (Q9Y5K5 whole entry, looked up): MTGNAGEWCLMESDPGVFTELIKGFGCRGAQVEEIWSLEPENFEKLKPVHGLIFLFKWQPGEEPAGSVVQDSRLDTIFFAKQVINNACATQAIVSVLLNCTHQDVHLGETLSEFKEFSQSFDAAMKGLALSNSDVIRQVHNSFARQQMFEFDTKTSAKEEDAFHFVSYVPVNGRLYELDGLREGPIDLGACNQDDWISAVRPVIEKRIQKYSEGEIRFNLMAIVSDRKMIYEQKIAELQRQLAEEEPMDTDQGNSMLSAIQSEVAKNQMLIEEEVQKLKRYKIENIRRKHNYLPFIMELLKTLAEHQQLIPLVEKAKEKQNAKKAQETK
#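 Material: human UCH37 enzyme supplied as purified proteasome complex / Amount: 0.15 nM proteasome as dispensed / Buffer or medium: pH 7.4 Tris-HCl (50 mM) with ovalbumin, ATP-MgCl2, DTT / Times: preincubation 30 min, reaction 25 min, room temperature / Technique: AMC fluorescence from Ub-AMC cleavage, excitation 355 nm, emission 460 nm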
# A1 inh: inhibitors of the anti-apoptotic protein A1, read as caspase activation. MEF A1-2A-BIM cells, Caspase-Glo 3/7 luminescence, 3 h; percent of clofoctol response, vehicle zero. 330,000 compounds, 0.066% hits. AID 2462. caspase activation, % (concentration not given with the values);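 active = over half of replicate activation scores above 10%, or exactly half above 10 with the replicate mean above 10; inconclusive = replicate mean below 10 yet half the replicates above 10; inactive = over half of replicates below 10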;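 also: wells of about 30 µL received 50 nL stock; many hits fall short of the cut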
# RanGTP-Imp inh: disruptors of Ran-importin-beta complex formation – biochemical, FRET, CFP-Ran, YFP-importin-beta, homogeneous, primary screen; cell-free CFP-Ran/YFP-importin-beta FRET ratio; 300,000 compounds, 1.1% hits; inhibition, % (test concentration not listed);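 active = most replicates above 15%; inconclusive = exactly half above 15%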;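 also: 0% = DMSO wells and 100% = Ran loaded with GDP instead of GTP; wells of about 40 µL received 100 nL stock; the first replicate is given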
# LANA-H2B inh: blocks KSHV LANA binding to histone H2A/H2B; cell-free LANA-H2A/H2B peptide, fluorescence polarization; inhibition, % (concentration not given with the values); 320,000 compounds, 0.6% hits; in the data active = inhibition mostly above about 10%, no sharp cut-off; inactive = mostly below about 6.7%;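 also: stock transfer was 7.5 nL into about 10 µL; 0% = median of vehicle wells and 100% = median of positive control wells; one replicate is shown; the record names a cut of 25% in any replicate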
# Beta2AR agonist: human beta-2 adrenergic receptor agonism by FAP; P07550; AID 504454; 340,000 compounds, 0.43% hits; Am2.2-beta2AR cells, FAP receptor internalization, flow cytometry; reference of the scale not given here; response, % (no concentration beside the values);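 active = response above a set limit, near 3 SD of response in nonfluorescent compounds, cut at about 42% in these data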;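 also: stock transfer was 100 nL into about 11 µL; a reference agonist was the positive control; negative values mostly stem from fluorescent compounds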
# Target sequence (P07550 whole entry, looked up): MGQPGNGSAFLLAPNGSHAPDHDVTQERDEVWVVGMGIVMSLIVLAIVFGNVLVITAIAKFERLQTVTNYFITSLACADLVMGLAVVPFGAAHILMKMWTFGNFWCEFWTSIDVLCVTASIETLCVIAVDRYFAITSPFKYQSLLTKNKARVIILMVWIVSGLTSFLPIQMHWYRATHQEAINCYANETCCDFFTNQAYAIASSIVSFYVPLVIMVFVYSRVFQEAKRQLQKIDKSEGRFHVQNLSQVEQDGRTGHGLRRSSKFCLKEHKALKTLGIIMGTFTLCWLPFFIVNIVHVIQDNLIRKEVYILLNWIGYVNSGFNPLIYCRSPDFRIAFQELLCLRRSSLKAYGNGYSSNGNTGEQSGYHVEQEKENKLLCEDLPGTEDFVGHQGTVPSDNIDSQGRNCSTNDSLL
# Numbers without * were called inactive; ? = inconclusive; nt = not tested or not shown.
SMILES,T cruzi repl,Beta apoptosis,Calb FLC,UCH37 inh,A1 inh,RanGTP-Imp inh,LANA-H2B inh,Beta2AR agonist
Clc1ccc(CSc2nnc([C@@H]3CCCN3)o2)cc1Cl,nt,-4,-3,7.7,-0.1,4.7,-1.6,12
COC(C[C@H]1O[C@@H]1[C@@H](O)COCc1ccccc1)OC,-12,nt,24,1.4,nt,3.0,nt,-3
CCCn1c(SCc2nc3ccccc3s2)n[nH]c1=O,-14,0,-9,-7.1,0.3,0.0,-0.9,-7
Cc1cc(C(=O)OCC(=O)NC(C)c2ccc(F)cc2)c(C)o1 (stereo not given),nt,1,nt,3.5,0.4,nt,-1.7,-5
Cn1ccc2c([N+](=O)[O-])cccc2c1=O,1,-9,0,4.4,0.7,5.1,-1.2,-5
COc1ccc(-c2cc(C(F)F)n3ncc(C(=O)Nc4c(C)n(C)n(-c5ccccc5)c4=O)c3n2)cc1,-5,7,20,3.9,-0.5,-0.6,-1.1,-8
COc1ccccc1/C=C/C(=O)OCC(=O)NCc1ccc2c(c1)OCO2,nt,-3,nt,-15,-2.5,nt,-1.6,3
CS(=O)(=O)c1ccc2nc(NC(=O)Nc3ccc(Cl)cc3)sc2c1,-1,5,-2,2.4,0.9,-0.4,-1.2,7
COC(=O)C1=C(N)Oc2cc(C)n(CC3CCCO3)c(=O)c2C1c1ccc(Cl)cc1 (stereo not given),6,-10,-9,1.0,0.3,11,-3.4,2
CCOC(=O)c1c(C)[nH]c(C(=O)COC(=O)COc2ccccc2C=O)c1C,-3,-4,2,4.5,0.2,?,4.8,-6
COc1cccc(NC(=O)Cn2cnc3sc(C)c(S(=O)(=O)N4CCCCC4)c3c2=O)c1,24,1,-7,2.6,-0.1,-2.0,1.2,4
COC(=O)c1ccccc1N(C)C(=O)C12CCC(C)(C(=O)O1)C2(C)C (stereo not given),2,-3,-9,0.9,1.4,0.3,-0.9,3

# 2 entries picked at random from those above:
SMILES,T cruzi repl,Beta apoptosis,Calb FLC,UCH37 inh,A1 inh,RanGTP-Imp inh,LANA-H2B inh,Beta2AR agonist
COC(C[C@H]1O[C@@H]1[C@@H](O)COCc1ccccc1)OC,-12,nt,24,1.4,nt,3.0,nt,-3
COC(=O)C1=C(N)Oc2cc(C)n(CC3CCCO3)c(=O)c2C1c1ccc(Cl)cc1 (stereo not given),6,-10,-9,1.0,0.3,11,-3.4,2

# (further entries)
SMILES,T cruzi repl,Beta apoptosis,Calb FLC,UCH37 inh,A1 inh,RanGTP-Imp inh,LANA-H2B inh,Beta2AR agonist
COc1cccc2cc(C(=O)N3CCC(C)CC3)c(=O)oc12,-2,-11,8,0.4,0.5,-1.9,-3.7,6
CCN1CCN(CC(=O)c2ccc(C)cc2)CC1,16,-6,-5,1.8,-0.9,0.8,-1.1,0
COc1ccc(Br)cc1C(=O)N/N=C/c1cccnc1,-1,6,-8,nt,0.6,-2.1,-3.9,0
CC1(c2ccc(Cl)cc2)NC(=O)N(CC(=O)Nc2ccc(F)cc2)C1=O (stereo not given),-5,-9,-4,1.0,-0.6,-0.3,-7.7,2
CCCc1cc(=O)oc2cc(OCC(=O)NCc3cccs3)ccc12,11,-3,-2,-15,0.7,-4.9,-0.3,-13
COc1ccc(CC(=O)OCC(=O)NCc2ccc(C)cc2)cc1OC,nt,-8,nt,3.1,-2.8,nt,-1.7,-1
COC(=O)c1ccsc1NC(=O)CN1CCN(c2ccc(F)cc2)CC1,15,-3,-7,2.1,-1.5,-0.7,-3.7,1
CC1CCN(C(=S)NC2CCCCC2)CC1,9,0,-17,-1.6,-1.0,-0.3,8.0,1
C/C(=N\NC(=O)c1ccco1)c1cc2ccccc2o1,1,1,12,nt,-0.5,3.0,2.8,-9
Cc1ccc2c(c1)c1c3n2CCN(CC(O)CNC(C)C)C3CCC1 (stereo not given),13,7,17,-0.3,0.6,3.9,3.3,5
c1ccc2cc(CNCc3cccc4ccccc34)ccc2c1,11,-4,0,6.8,1.4,1.5,-2.6,-2
C#CCOCCOCCOCCNc1nc(N2CCN(C(=O)CCCCCCCCCCNC(=O)[C@H](CCCCN)n3cc(C)nn3)CC2)nc(N2CCN(C(=O)CCCCCCCCCCNC(=O)[C@H](CO)n3cc(CCCSC)nn3)CC2)n1,nt,25,nt,2.9,-0.6,nt,-24,77*
CC1CC(C)CN(CCCNS(=O)(=O)c2ccc3c(c2)CCN3C(=O)C2CC2)C1 (stereo not given),21,-9,-15,4.6,1.1,-0.7,-8.1,-15
COC(=O)c1ccc(CNC(=O)c2ccc(S(=O)(=O)N(C)c3ccccc3OC)cc2)cc1,nt,2,nt,0.0,0.2,nt,-1.2,-1
N#C/C(=C\c1cccnc1)C(=O)Nc1cccc(Cl)c1,-23,-13,-4,-1.5,1.1,0.7,-2.9,16
COc1ccc(NC(=O)c2ccc(S(=O)(=O)N3CC(C)CC(C)C3)cc2)cc1S(N)(=O)=O (stereo not given),nt,-6,nt,-162,0.7,nt,4.4,-3
CCN(CC)CCNc1nc2nonc2nc1NCCN(CC)CC,-6,-8,-2,3.7,0.6,-2.6,4.4,4
COc1ccc(N=C2C(=Nc3ccc(OC)cc3)N(c3ccc(OC)cc3)C(=S)N2C)cc1,53,12,5,4.8,-0.1,7.4,1.6,6
CC(=O)N1C(=O)C2(C(C#N)=C(N)Oc3cc(C)oc(=O)c32)c2ccccc21 (stereo not given),-9,-5,-8,1.9,1.5,1.4,-2.9,0
COc1ccc2c(c1)c(C(=O)CN1CCOCC1)c(C)n2C,1,-6,-6,2.0,1.3,0.5,0.5,8
COc1cccc(CC(NC(C)=O)C(=O)NC2CCN(c3nc(C)cc(C)c3C#N)CC2)c1 (stereo not given),1,-2,8,-45,0.5,-0.4,5.3,-2
Cc1cc(=O)oc(C)c1C(=O)OCC(=O)c1ccc2ccccc2c1,7,-4,3,-10,-0.4,3.0,0.0,2
Cc1ccc(S(=O)(=O)N(OCc2ccccc2)C(C)C(=O)O)cc1 (stereo not given),-9,-6,-5,1.7,0.8,8.7,0.4,-9
Cc1ccc(Cn2nnc(C(=O)Nc3cc(C)ccc3C)c2N)cc1,12,-1,-21,-1.2,2.5,2.2,0.6,4
CC(C)NC(=O)c1ccc(-c2cc(C(F)(F)F)ccc2Cl)o1,-19,1,-16,-0.3,1.1,-1.6,0.1,1
O=C(Nc1ccc2c(c1)OCO2)c1ccc(Br)o1,1,0,?,2.0,-6.7,-1.0,3.9,-1
c1ccc2[nH]c(CCCc3nc4ccccc4[nH]3)nc2c1,2,-6,-4,4.6,-1.3,0.3,1.3,-6
Nc1nc(Nc2ccccc2)nc(NC2CCCCC2)c1[N+](=O)[O-],-3,28,3,5.0,-1.0,6.1,3.1,12
Cn1cc(Br)c(C(=O)NC(=S)N2CCN(c3ccccn3)CC2)n1,-4,1,-13,3.0,-0.4,-0.2,-8.8,37
CCOc1ccccc1NC(=O)CCNC(=O)c1ccco1,-12,-10,-1,3.0,0.2,2.0,0.3,2
CC(Cl)c1cc(-c2ncc(C(F)(F)F)cc2Cl)no1 (stereo not given),-17,-5,-2,30*,1.2,2.4,-1.5,-8
COc1cccc(CN(C)C(=O)c2cc(COc3ccc4ncccc4c3)on2)c1,27,76*,-8,1.9,-1.1,-2.0,0.2,-1
COc1ccc(OC)c(C2C(C(C)=O)=C(O)C(=O)N2CCc2ccc(OC)c(OC)c2)c1 (stereo not given),-5,1,0,5.7,2.5,-0.3,-0.4,-3
NC(=O)c1ccc(NC(=O)CN2CCN(c3ccc(Cl)cc3)CC2)cc1,-28,-2,-9,3.0,-0.2,-1.8,-0.6,4
C=CCn1c(N)cc(=O)nc1SCC(=O)NC(C)c1ccccc1 (stereo not given),-2,1,-17,1.5,-0.3,5.2,-0.6,1
O=C(O)C1CC=CCC1C(=O)NCCCN1CCCC1=O (stereo not given),3,-10,nt,4.5,0.8,nt,-0.7,5
COc1ccc(N2CCN(C(=O)CN3C(=O)NC4(CCCc5ccccc54)C3=O)CC2)cc1 (stereo not given),0,3,-4,0.5,1.2,3.5,-2.6,0
CCOCCc1nnc(NC(=O)CCS(=O)(=O)c2ccccc2)s1,2,-25,48,0.2,1.1,-0.2,0.1,2
COC(=O)CSc1nnc2n(-c3ccc(OC)cc3)c(=O)c3c4c(sc3n12)CCCCC4,10,-10,11,0.6,0.3,3.3,-5.2,31
CCOc1cc(/C=C2\N=C3CCCCCN3C2=O)ccc1O,2,4,15,15,0.8,1.9,-12,3
O=C1N=C(N2CCOCC2)S/C1=C\c1ccc(OS(=O)(=O)c2ccccc2)cc1,19,-11,-6,3.7,-0.2,3.0,-6.6,7
COc1cccc(CNS(=O)(=O)c2cc3c4c(c2)CCC(=O)N4CCC3)c1,6,2,1,2.1,0.2,1.7,2.4,2
COC(=O)/C(=N/Nc1ccc(C)cc1)N1CCCc2ccccc21,10,-2,-15,nt,-0.3,-1.3,6.8,6
O=C(CNS(=O)(=O)c1ccc(Cl)cc1)NC1CCCCC1,nt,-2,nt,0.8,0.6,nt,-2.8,-2
O=C(O)c1ccc(CN2C(=O)c3cccc4c([N+](=O)[O-])ccc(c34)C2=O)cc1,49,nt,40,-49,nt,-10,nt,-15
O=C(COC(=O)C1CC2C=CC1C2)Nc1ccc([N+](=O)[O-])cc1 (stereo not given),nt,-1,nt,5.0,-0.7,nt,-1.9,-15
Cc1ccc(-n2nc3c(=O)n(CCCC(=O)NCCN4CCN(C)CC4)nc(C)c3c2C)cc1,-6,10,3,1.7,0.5,5.2,-1.4,-4
CC(C)(C)c1ccc(C(=O)N2CCC(C(=O)NCc3ccco3)CC2)cc1,-17,5,-9,2.1,1.2,3.1,-4.3,-2
O=C(CN1CCCCCC1=O)OCc1ncc(-c2ccccc2)o1,10,6,-6,1.2,-1.0,3.4,3.0,11
Cc1ccc(C)c(OCC(=O)NNC(=O)c2ccc(=O)[nH]c2)c1,nt,1,nt,1.1,0.0,nt,-2.9,2
CN(CC1CCCO1)S(=O)(=O)c1ccc(C(=O)Nc2nnc(-c3ccccc3)o2)cc1 (stereo not given),50,6,45,10,1.0,-1.8,-2.4,10
N#C/C(=C(/O)COC(=O)c1ccc(O)cc1)c1nc2ccccc2[nH]1,-11,-8,-4,1.6,0.4,2.9,-1.9,0
CN(C)S(=O)(=O)c1ccc(C(=O)Nc2ccn(C)n2)cc1,-2,-2,6,4.1,0.8,-0.9,0.6,15

# Some of the entries so far, with two lines to a compound:
# Results follow in this order: T cruzi repl, Beta apoptosis, Calb FLC, UCH37 inh, A1 inh, RanGTP-Imp inh, LANA-H2B inh, Beta2AR agonist
- Cc1ccc(C)c(OCC(=O)NNC(=O)c2ccc(=O)[nH]c2)c1
  nt, 1, nt, 1.1, 0.0, nt, -2.9, 2
- CN(CC1CCCO1)S(=O)(=O)c1ccc(C(=O)Nc2nnc(-c3ccccc3)o2)cc1 (stereo not given)
  50, 6, 45, 10, 1.0, -1.8, -2.4, 10
- N#C/C(=C(/O)COC(=O)c1ccc(O)cc1)c1nc2ccccc2[nH]1
  -11, -8, -4, 1.6, 0.4, 2.9, -1.9, 0
